Source: PubChem BioAssay (National Center for Advancing Translational Sciences (NCATS))
Sfp inh – Sfp phosphopantetheinyl transferase inhibition; Q9F4F7; Biochemical Sfp PPTase activity, qHTS; Potency, µM, for inactives: max response, negative = inhibition, most hits filed as inhibitors; hit rate 3.5% among 310,000; active = well fitted inhibition curve with a large enough effect; inconclusive = small, poorly fitted or top-dose-only effect, or another doubt; inactive = no such curve, though single readings can be large or run the other way;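 note: the enzyme is Sfp with the accession as filed and its product quenches rhodamine fluorescence; potency is the fitted concentration of half-maximal effect; 0% = enzyme reaction without inhibitor and -100% = no enzyme wells; top concentration of the series not given in the record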
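Sfp 15 nM + cpd, 15 min RT; start w/ rhodamine-CoA 5 uM, BHQ-2-YbbR 12.5 uM (final); 50 mM Hepes pH 7.6, 10 mM MgCl2, 0.01% NP-40, 0.01% BSA; read 525/598 nm at 0 and 30 min.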
TRPV1 PAM – enhances activation of the human vanilloid receptor TRPV1; Q8NER1; TRPV1-expressing cells, Fluo-8 calcium influx, capsaicin EC20 potentiation; host cell line not named in the record; control for the full effect not named in the record; potentiation, % at 8.33 µM; hit rate 0.02% among 320,000; AID 540277; active means potentiation above 80%; inconclusive means 30% to 80%; inactive means below 30%; note: 0% is about no effect
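Cells expressing TRPV1 were dye-loaded with Fluo-8 and read kinetically: 10 s baseline, 3 min after compound (agonist portion), then 2 min after EC20 capsaicin (allosteric enhancer portion). Calcium-bound dye fluorescence at 480/520 nm.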
gsp antagonist – gsp mutant antagonism; gsp-mutant cells, cAMP HTRF, 30 min; control for the full effect not named in the record; Potency, µM (top dose mostly 76.9 µM), without a hit: at the top dose activity change, negative = inhibition, hits mostly inhibitors; hit rate 0.4% among 340,000; active = falling curve of any shape with a large fitted effect; inconclusive = falling curve, mostly with a smaller effect; inactive = flat or rising curve; cell line not stated here;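 note: intracellular cAMP measured with PDE inhibitor Ro 20-1724 present during compound exposure; potency is the fitted concentration of half-maximal effect; % is set by controls: 0 for no effect and ±100 for the full control effect; nearly all actives have a fitted effect of over 65% in size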
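Measurement of cellular cAMP by homogeneous time-resolved fluorescence following a 30 min compound exposure at 37C. The PDE inhibitor […] was present throughout; the assay buffer was DPBS with 0.05% BSA and 0.005% Tween 20.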
Menin MLL FP FL – displaces fluorescein MLL peptide from human menin; Fluorescence polarization, fluorescein-MLL peptide displacement from menin; FP activity change, % at 61.4 µM; 290,000 tested, under 10 active; AID 1766; inconclusive = falling polarisation curve, or a change in total fluorescence; inactive = total fluorescence flat and polarisation flat or rising; no compound was filed as active; the % refers to the polarisation; negative = inhibition;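 note: % of control where 0% means no effect; inhibitors lower the polarisation; unlabelled MLL peptide was the positive control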
gsp ag – agonists of gsp mutant (McCune-Albright syndrome). gsp mutant cells, cAMP HTRF, 30 min; control for the full effect not named in the record. Potency, µM (doses to about 76.9 µM), inactives show top-dose activation (cAMP increase), most hits filed as activators. hit rate 0.13% among 340,000. AID 624287; active = well fitted activation curve with a large enough effect; inconclusive = small, poorly fitted or top-dose-only effect, or another doubt; inactive = no such curve, though single readings can be large or run the other way; cell line not stated here;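 note: phosphodiesterase inhibitor Ro 20-1724 added with compounds to block cAMP breakdown; potency is the fitted concentration of half-maximal effect; nearly all actives have a fitted effect of over 60% in size; about a fifth of the inactives were tested at one dose only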
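Cells in DMEM/10% FBS with G418 were pretreated with compounds in DMSO plus […] (300 uM stock) for 30 min at 37C. cAMP was measured by HTRF (cAMP-d2 plus anti-cAMP antibody-K) after 30 min at room temperature.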
ClpP mod – qHTS Assay for Activators of ClpP; ATP-dependent Clp protease proteolytic subunit (Bacillus subtilis (strain 168)), P80244; hit rate 1.9% among 340,000; Potency, µM (series often up to 57.5 µM), for inactives: at the top dose activity change, negative = active; purified B. subtilis ClpP, FRET peptide cleavage, 20 min; active = well fitted falling curve with a large enough effect; inconclusive = small, poorly fitted or top-dose-only effect; inactive = no such curve, though single readings can be large or run the other way; note: potency is the fitted concentration of half-maximal effect; the source files actives as falling curves though it sought activators and does not explain the sign; nearly all actives have a fitted effect of over 65% in size; many hits overshoot -100%
Target sequence (P80244 whole entry, looked up): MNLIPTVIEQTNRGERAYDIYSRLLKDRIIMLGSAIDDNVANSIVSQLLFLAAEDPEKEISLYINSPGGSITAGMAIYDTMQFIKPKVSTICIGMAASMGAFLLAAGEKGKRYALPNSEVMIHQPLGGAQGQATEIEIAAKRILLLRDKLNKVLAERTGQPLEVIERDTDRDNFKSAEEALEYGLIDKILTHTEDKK
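Purified B. subtilis ClpP, 10 microg/mL final in Tris/HCl pH8 with KCl, BSA, glycerol and Tween-20, cleaved an Abz/nitrotyrosine-quenched decapeptide. Fluorescence (ex 320, em 430) was read at 0 and 20 min at room temperature. Delta was normalized to 5.8 microM ADEP and DMSO/no-enzyme controls.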
TRPML1 blocker – blocks the human TRPML1 channel | activity change, negative = inhibition, % (concentration not given with the values) | hit rate 0.02% among 390,000 | TRPML1-inducible cells, Ca2+ dye fluorescence, FDSS; active compounds read low; inhibition of EC80 agonist-evoked calcium signal; in the data active means activity change below about -50%; inconclusive means about -30% to -50%; inactive means above about -30%;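 note: stimulus is agonist 54-4 at its EC80 concentration; % is set by controls: 0 for no effect and ±100 for the full control effect; the text of the record puts the active cut at -80%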
Target sequence (Q9GZU1 whole entry, looked up): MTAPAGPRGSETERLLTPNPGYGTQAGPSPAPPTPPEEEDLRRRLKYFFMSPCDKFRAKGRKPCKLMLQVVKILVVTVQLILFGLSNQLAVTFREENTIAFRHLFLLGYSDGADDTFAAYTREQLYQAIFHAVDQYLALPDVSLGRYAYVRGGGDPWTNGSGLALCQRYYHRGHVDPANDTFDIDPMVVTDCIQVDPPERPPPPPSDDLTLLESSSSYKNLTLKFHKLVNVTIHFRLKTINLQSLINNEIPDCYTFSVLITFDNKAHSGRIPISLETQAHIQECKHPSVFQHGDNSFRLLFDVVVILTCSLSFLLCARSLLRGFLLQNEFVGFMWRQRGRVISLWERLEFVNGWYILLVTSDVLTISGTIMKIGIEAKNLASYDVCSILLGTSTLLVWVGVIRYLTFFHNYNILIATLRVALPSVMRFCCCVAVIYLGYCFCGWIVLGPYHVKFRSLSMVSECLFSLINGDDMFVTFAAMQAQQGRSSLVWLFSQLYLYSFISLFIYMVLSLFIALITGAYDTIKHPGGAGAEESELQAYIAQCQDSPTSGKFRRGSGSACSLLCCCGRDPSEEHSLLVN
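Tet-induced TRPML1-DL cells loaded with Ca8 no-wash calcium dye were read kinetically on FDSS. Compound addition was followed by EC80 agonist 54-4 (4 uM final); inhibition was read over 110 s.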
* hit, by the source's call; ? = inconclusive; / = no result given; & = joins results of further samples; [ ] = remark or other dose.

SMILES,Sfp inh,TRPV1 PAM,gsp antagonist,Menin MLL FP FL,gsp ag,ClpP mod,TRPML1 blocker
CCOc1ccccc1NC(=O)COn1nnc2ccc(Cl)cc21,-3.9%,-0.5,-12.5%,4.7,-49.7%[inhibitor],1.4%,14.3
COc1ccccc1N1CCN(C(=O)CCNC(=O)c2ccco2)CC1,/,-2.5,2.3%,/,10.9%,-2.3%,13.6
CCOc1ccc(CCNC(=O)COC(=O)c2nccnc2N)cc1OCC,/,16.8,11.5%,/,-2.0%[15.4 µM],20.8%,3.3
CS(=O)(=O)N(Cc1ccc(C(=O)NN=C2CCCC2)cc1)c1ccccc1,11.5%,-5.4,4.2%,5.4,?,-1.0%,15.5
COC(=O)c1cc(S(=O)(=O)N2CCOCC2)c(Cl)cc1N1CCOCC1,8.9%,-9.5,-13.7%,-1.7,-21.5%,-1.2%,0.6
N#CC1=C(N)SC2(CCCCC2)SC1c1ccccc1 (stereo not given),10µM*,-3.6,-3.6%,1.6,-11.7%,-2.8%,-9.6
Nc1nnc(SCC(=O)N2CCN(c3cccc(Cl)c3)CC2)n1-c1ccccc1,/,/,-1.2%,/,-18.6%,-1.6%,2.6
Cc1ccc(S(=O)(=O)n2c(CN3CCCC(C)C3)nc3ccccc32)cc1 (stereo not given),-6.6%,-13.2,-0.4%,?,-27.3%,-17.7%,-7.9
Cn1cc(CN2CCCC(C(=O)c3ccc(-c4ccccc4)c(F)c3)C2)cn1 (stereo not given),15.1%,0.3,-9.8%,1.1,-2.4%[15.4 µM],/,-10.4
CCCNC(=O)c1ccc(N2CCC3(CC2)CC(c2ccccc2)=NO3)c(N)c1,-2.0%,8.2,5.7%,-1.2,26.6%,?,28.2
COc1ccc2[nH]c3c(N4CC(C)OC(C)C4)ncnc3c2c1 (stereo not given),4.7%,-20.3,3.5%,-1.5,21.7%,?,3.9
O=C(Nc1ccc([N+](=O)[O-])cc1)C1COc2ccccc2O1 (stereo not given),1.4%,0.3,6.7%,0.4,2.2%[15.4 µM],-0.5%,-11.1
Cn1cccc1C(=O)NNC(=O)c1ccccc1Br,/,23.6,-9.6%,/,-7.7%,-3.3%,8.4
O=C(CSc1nc2ccc(Cl)cc2[nH]1)c1ccc2c(c1)OCO2,79.4µM*,10.3,-7.9%,5.6,4.0%,1.0%,-10.2
Cc1nnc(C)n1/N=C/c1ccc2c(c1)OCCO2,12.2%,-9.4,-3.8%,-1.5,15.4%,-0.8%,-11.4
CN(C)CCC(C(=O)c1ccccc1)c1ccncc1 (stereo not given),/,/,16.4%,/,-4.0%[15.4 µM],1.3%,3.7
COc1ccc(NC(=O)CCC(=O)c2ccc(Cl)cc2)cn1,/,3.9,-7.0%,/,-11.5%,-2.7%,9.8
CCn1c(SCC(=O)Nc2ccccc2)nc2ccccc2c1=O,6.9%,-10.5,-1.1%,-2.2,8.6%[15.4 µM],-8.0%,-3.1
O=C(NCc1ccc2c(c1)OCO2)C1CCC(CNc2c(N3CCCC3)c(=O)c2=O)CC1 (stereo not given),21.2%,1.3,-3.9%,0.7,?,-1.0%,14.3
C=CCC(NCc1ccccc1)c1ccccc1 (stereo not given),9.7%,-0.9,-0.2%,12.6,-0.4%[15.4 µM],-9.0%,12.8
Cc1ccc(Nc2nc3c(s2)CCC3)c(C)c1,?,17.8,6.7%,7.6,-15.5%,-0.3%,7.2
C/C(N)=C(/C#N)C(=O)COC(=O)c1cc(-c2cccc(Br)c2)nc2ccccc12,4.1%,-1.0,1.8%,9.6,-43.1%[inhibitor],-8.9%,-4.8
CN1C(=O)N(CC(=O)N2CCN(c3ncccn3)CC2)C(=O)C12CCCCC2,/,-25.2,10.0%,/,22.5%[15.4 µM],/,1.9
O=C(CCN1c2ccccc2Sc2ccccc21)Oc1ccccc1,-0.1%,8.6,0.2%,9.2,-10.8%,-27.3%,43.3
S=C(NCCNCc1ccccc1)NC1CCCCC1,19.1%,-4.3,/,0.2,/,/,/
Cc1ccc(-n2nc(C)c3c2OC(N)=C(C#N)C3c2ccncc2)cc1 (stereo not given),2.7%,17.4,-20.5%,4.4,18.5%,-2.1%,0.6
O=c1cc(-c2ccccc2)cc(-c2ccccc2)n1O,/,-5.2,-2.3%,/,/,-22.0%,-17.6
COc1ccc(F)cc1C(=O)C1CCCN(C(=O)CCc2ccccn2)C1 (stereo not given),-13.8%,-9.7,-4.5%,-2.7,-16.2%[15.4 µM],/,51.5
Oc1ccc(Br)cc1-c1cc(-c2ccccc2)n[nH]1,-15.5%,-1.1,-34.3%,0.2,-24.7%,0.8%,-5.4
CCC(=O)NCc1c(Cl)cccc1-n1cccc1,8.4%,5.8,-9.2%,0.8,?,0.9%,32.6
N/C(=N\OC(=O)c1ccc2c(c1)OCO2)c1ccc([N+](=O)[O-])cc1,-3.5%,6.1,8.1%,-5.9,?,0.6%,-10.3
CCC(C)(C)C1CCC2(CC1)NC(=O)N(CC(=O)Nc1cc(C(F)(F)F)ccc1N1CCOCC1)C2=O (stereo not given),20.5%,-9.3,9.2%,-0.5,-52.6%[inhibitor],-1.0%,-11.0
COc1ccc(NC(=O)C(=O)NCC(c2ccco2)N2CCc3ccccc32)cc1 (stereo not given),/,-28.5,17.6%,/,12.4%[15.4 µM],1.7%,-10.2
Cc1noc(N)c1C(=O)Nc1ccccc1F,9.1%,0.7,1.6%,-1.5,0.5%,1.9%,29.5
CN(C)CCNC(=O)Cn1ccc2cc(S(=O)(=O)N3CCCCCC3)ccc21,-0.1%,4.0,5.5%,0.8,?,-1.5%&-3.4%,-0.9&-7.0
CCOC(=O)C1CCN(S(=O)(=O)c2ccc3c(c2)CCCN3C(C)=O)CC1,5.7%,-5.8,-11.1%,-1.6,-0.5%,1.9%,-3.6
O=[N+]([O-])c1ccc(N2CCN(S(=O)(=O)c3ccccc3)CC2)cc1,-14.8%,-2.7,-24.6%,-0.2,-35.6%,/,6.6
O=C(NCc1ccco1)c1ccc([N+](=O)[O-])o1,-26.6%,-6.8,-22.5%,-0.8,19.3%[15.4 µM],-6.4%,-7.6
CC(C)(C)CN1CCN(Cc2cccnc2)CC1CCO (stereo not given),9.5%,?,-2.2%,0.2,-0.3%[15.4 µM],-1.9%,-16.6
Cc1cc(C)c2c(N)c(C(=O)c3ccc(Cl)cc3Cl)sc2n1,-17.2%,-6.4,?,-1.3,8.9%,39.6%,1.7
COc1ccc(CCNC(=O)c2cc(-c3cc(Cl)ccc3O)n[nH]2)cc1OC,8.8%,-0.2,?,4.1,4.1%[15.4 µM],/,4.3
O=C(Oc1ccc(C(=S)N2CCOCC2)cc1)c1ccccc1,12.9%,-10.9,6.3%,5.1,22.4%,/,4.1
Cc1ccc(/C=N/NC(=O)c2nnn(-c3nonc3N)c2CNc2ccccc2)cc1,16.3%,-3.5,18.7%,/,17.7%,1.3%,24.5
Clc1ccc(-c2ccc(SCc3ccccn3)nn2)cc1,15.2%,-3.8,4.5%,1.0,19.5%,0.4%,12.7
COc1ccc(CNC(=O)CCNS(=O)(=O)c2cccc3nsnc23)cc1,-0.2%,-5.2,5.0%,-4.0,-0.9%[15.4 µM],-0.2%,-7.4&14.3
O=C(O)C1CCCCC1C(=O)Nc1cccc(Cl)c1Cl (stereo not given),16.1%,-7.3,5.5%,1.1,5.6%,0.6%,-10.3
COc1ccc(N(C(=O)CCl)C(C(=O)NCCc2ccccc2)c2cccs2)cc1Cl (stereo not given),-19.2%,-7.0,-22.8%,1.6,-10.5%,0.6%,-1.5
Cc1ccc(NC(=O)COC(=O)Cn2cnc3c2c(=O)n(C)c(=O)n3C)cc1,/,/,15.9%,/,12.3%,/,9.7
CCN1CCN(S(=O)(=O)c2ccc3ccccc3c2)CC1,21.2%,1.8,-8.0%,1.5,11.5%,-0.6%,5.4
CCC(=O)NCCCc1nc2ccccc2n1Cc1ccccc1F,3.9%,-12.8,3.9%,-3.5,-37.8%[inhibitor],2.1%,-1.8
Cc1cc(C)nc(/N=C(\N)N(Cc2ccccc2)Cc2ccccc2)n1,12.6%,10.3,-11.2%,3.6,18.7%[15.4 µM],/,-4.4
COc1cccc(CCNC(=O)CC2C(=O)NCCN2CC(C)(C)C)c1 (stereo not given),10.9%,3.5,-2.6%,1.6,-20.4%,/,1.2
CCN(CC)C(=O)C(=O)Nc1cccc(Br)c1,7.9%,-10.3,-0.7%,0.4,13.6%,-0.4%,-2.7
Cc1sc2ncnc(NCCCO)c2c1C,21.7%,/,-7.6%,2.6,?,-0.1%,26.4
COc1ccc(CNC(=O)COC(=O)c2ccc3ccccc3n2)cc1,/,/,2.2%,/,?,-3.4%,27.8
O=C(CNC(=O)c1cccc(S(=O)(=O)N2CCc3ccccc32)c1)Nc1ccccc1Br,/,/,-5.5%,/,-8.3%,-0.6%,-2.3
CCOc1ccc(C(=S)N2CCOCC2)cc1OC,-13.0%,-2.4,-7.2%,0.6,-2.2%,-3.0%,-4.1
Cc1ccc(N(C(=O)c2ccc(S(=O)(=O)N(C)C)cc2)C2C=CS(=O)(=O)C2)cc1 (stereo not given),13.6%,-12.3,-1.2%,-8.0,-44.3%[inhibitor],-4.6%,-12.5
CCOC(=O)C1(CCCc2ccccc2)CCN(S(C)(=O)=O)CC1,5.1%,0.6,-4.3%,-0.5,0.6%,/,-0.1
CC(C)Oc1ccc(C(CCN)C2CCCCC2)cc1 (stereo not given),?,14.1,13.3%,-1.1,-0.3%,/,30.3
CC(C)c1ccc(/C=C/c2[nH]c(=O)[nH]c(=O)c2[N+](=O)[O-])cc1,7.3%,1.3,-2.5%,5.9,-19.0%,-1.2%,/
O=C(Cc1ccccc1)Nc1nnc(-c2ccco2)o1,-5.6%,-7.7,-37.2%,0.8,7.3%[15.4 µM],/,-4.2
COC(=O)c1ccc(CNC(=O)CCC(=O)N2CCOCC2)cc1,/,/,16.3%,/,-21.0%,/,-6.6
